# D2 agonist – Beta-Arrestin HTS for Positive Allosteric Modulators of the Human D2 Dopamine Receptor: Agonists; D(2) dopamine receptor (Homo sapiens), P14416; DiscoveRx PathHunter D2 beta-arrestin, luminescence, 90 min; 100% = 57 uM dopamine signal; activation, % (concentration not given with the values); hit rate 0.084% among 360,000; in the data active = activation above about 40%; inconclusive = about 15% to 40%; inactive = below about 15%; also: compound concentration not given in the record; the text of the record calls up to 30% inactive
# Target sequence (P14416 whole entry, looked up): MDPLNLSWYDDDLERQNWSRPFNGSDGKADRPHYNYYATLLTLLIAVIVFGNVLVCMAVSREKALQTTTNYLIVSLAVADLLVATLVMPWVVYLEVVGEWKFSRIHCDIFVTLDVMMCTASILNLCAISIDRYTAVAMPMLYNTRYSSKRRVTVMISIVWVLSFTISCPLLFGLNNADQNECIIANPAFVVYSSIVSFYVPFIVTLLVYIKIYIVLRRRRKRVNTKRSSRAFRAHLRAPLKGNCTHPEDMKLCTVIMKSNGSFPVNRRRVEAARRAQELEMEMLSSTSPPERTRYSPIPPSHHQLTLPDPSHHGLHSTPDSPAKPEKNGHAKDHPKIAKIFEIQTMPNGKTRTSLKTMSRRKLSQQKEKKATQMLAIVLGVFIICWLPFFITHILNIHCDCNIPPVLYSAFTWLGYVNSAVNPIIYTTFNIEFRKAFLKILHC
#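 Agonist mode: compounds alone added to overnight-plated D2 PathHunter cells for 90 min at 37 C, with 57 uM final dopamine (EC100) defining full response. Beta-arrestin recruitment detected by chemiluminescent reagent, read after 1 h at ambient temperature.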
# Menin MLL FP FL – qHTS Assay for Inhibitors Targeting the Menin-MLL Interaction in MLL Related Leukemias: Competition With Fluorescein Labeled MLL-derived Peptide; Fluorescence polarization, fluorescein-MLL peptide displacement from menin; FP activity change, % at 61.4 µM; 290,000 tested, under 10 active; AID 1766, 2009; inconclusive = falling polarisation curve, or a change in total fluorescence; inactive = total fluorescence flat and polarisation flat or rising; no compound was filed as active; the % refers to the polarisation; negative = inhibition;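 also: % of control where 0% means no effect; inhibitors lower the polarisation; unlabelled MLL peptide was the positive control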
# PINK1 expr mod – A Quantitative High throughput Screen to Identify Chemical Modulators of PINK1 Expression. PINK1 immunofluorescence, high-content cytometry, 24 h. Potency, µM (series often up to 76.6 µM), for the others: at the highest dose activation (PINK1 increase), hits mostly activators. hit rate 0.2% among 410,000; active = well fitted activation curve with a large enough effect; inconclusive = small, poorly fitted or top-dose-only effect; inactive = flat fitted curve, though single readings scatter; cell line not stated here;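 also: potency is read from the fitted curve at half-maximal effect; % of control where 0% means no effect; nearly all actives have a fitted effect of over 65% in size; a mitochondrial uncoupler was the plate control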
#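 PINK1 protein level read as immunofluorescence by microplate cytometer in a fixed, stained stable cell line after 24 h exposure to five compound concentrations, with CCCP as control.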
# gsp antagonist – qHTS for Antagonists of gsp, the Etiologic Mutation Responsible for Fibrous Dysplasia/McCune-Albright Syndrome: qHTS. Potency, µM (series often up to 76.9 µM), for the others: at the top dose activity change, negative = inhibition, usual class: inhibitors. hit rate 0.4% among 340,000. AID 624288, 2012. gsp-mutant cells, cAMP HTRF, 30 min; control for the full effect not named in the record; active = falling curve of any shape with a large fitted effect; inconclusive = falling curve, mostly with a smaller effect; inactive = flat or rising curve; cell line not stated here;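 also: intracellular cAMP measured with PDE inhibitor Ro 20-1724 present during compound exposure; potency is read from the fitted curve at half-maximal effect; % is scaled to controls: 0 for no effect and ±100 for the full control effect; nearly all actives have a fitted effect of over 65% in size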
#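 HTRF cAMP read-out (cAMP-d2 plus anti-cAMP antibody-K in lysis buffer, 30 min RT). Before lysis, cells are exposed to compounds with […] for 30 min at 37C in DPBS containing Ca/Mg, BSA and Tween 20.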
# Sfp PPTase inh – qHTS Assay for Inhibitors of Bacillus subtilis Sfp phosphopantetheinyl transferase (PPTase); Biochemical Sfp PPTase activity, qHTS; hit rate 3.5% among 310,000; Potency, µM, for the others: max response, negative = inhibition, most hits filed as inhibitors; active = well fitted inhibition curve with a large enough effect; inconclusive = small, poorly fitted or top-dose-only effect, or another doubt; inactive = no such curve, though single readings can be large or run the other way;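 also: the enzyme is Sfp with the accession as filed and its product quenches rhodamine fluorescence; potency is read from the fitted curve at half-maximal effect; 0% = enzyme reaction without inhibitor and -100% = no enzyme wells; top concentration of the series not given in the record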
#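 Compounds were incubated with enzyme (final 15 nM) for 15 min at room temperature before substrate addition started the reaction. Fluorescence at 525 nm excitation, 598 nm emission was recorded immediately and after 30 minutes.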
# gsp agonist – qHTS for Agonist of gsp, the Etiologic Mutation Responsible for Fibrous Dysplasia/McCune-Albright Syndrome: qHTS; gsp mutant cells, cAMP HTRF, 30 min; control for the full effect not named in the record; Potency, µM (doses to about 76.9 µM), for inactives: top-dose activation (cAMP increase), most hits filed as activators; hit rate 0.13% among 340,000; active = well fitted activation curve with a large enough effect; inconclusive = small, poorly fitted or top-dose-only effect, or another doubt; inactive = no such curve, though single readings can be large or run the other way; cell line not stated here;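 also: phosphodiesterase inhibitor Ro 20-1724 added with compounds to block cAMP breakdown; potency is read from the fitted curve at half-maximal effect; nearly all actives have a fitted effect of over 60% in size; about a fifth of the inactives were tested at one dose only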
#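 Cells stably selected in G418 were plated at 2000/well, grown 16-24 hr, then given compounds in DMSO with the PDE inhibitor […] (300 uM solution added) for 30 min at 37C; cAMP was read by HTRF.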
# ClpP mod – qHTS Assay for Activators of ClpP; Potency, µM (titrated, usually from 57.5 µM), for the others: at the highest dose activity change, negative = active; ATP-dependent Clp protease proteolytic subunit (Bacillus subtilis (strain 168)), P80244; purified B. subtilis ClpP, FRET peptide cleavage, 20 min; hit rate 1.9% among 340,000; active = well fitted falling curve with a large enough effect; inconclusive = small, poorly fitted or top-dose-only effect; inactive = no such curve, though single readings can be large or run the other way; also: potency is read from the fitted curve at half-maximal effect; the source files actives as falling curves though it sought activators and does not explain the sign; nearly all actives have a fitted effect of over 65% in size; many hits overshoot -100%
# Target sequence (P80244 whole entry, looked up): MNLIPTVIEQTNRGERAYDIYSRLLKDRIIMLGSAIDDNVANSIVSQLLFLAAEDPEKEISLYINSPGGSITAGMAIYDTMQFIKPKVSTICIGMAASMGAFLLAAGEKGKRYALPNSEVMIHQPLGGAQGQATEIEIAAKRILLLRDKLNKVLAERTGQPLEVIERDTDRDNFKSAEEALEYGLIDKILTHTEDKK
#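 ClpP 10 microg/mL final, pH 8 Tris/KCl buffer with BSA, glycerol, Tween-20; compound pinned in; FRET-FV substrate; RT 20 min; Ex320/Em430; ΔFRET vs ADEP 5.8 microM, DMSO, no enzyme.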
# * hit, by the source's call; ? = inconclusive; / = no result given; [ ] = another dose, or the depositor's remark. Random draw from the library, and some 5.1% of all compounds hit somewhere here.
SMILES,D2 agonist,Menin MLL FP FL,PINK1 expr mod,gsp antagonist,Sfp PPTase inh,gsp agonist,ClpP mod
Cc1ccc(-n2nc3c(c2NC(=O)c2ccccc2Br)CS(=O)C3)cc1 (stereo unspecified),-1.1,1.1,0.8%,5.0%,1.1%,-51.1%[inhibitor],1.4%
Cc1ccc(NC(=O)COC(=O)C2CSC3(C)CCC(=O)N23)c(C)c1 (stereo unspecified),-2.2,/,0.6%,13.1%,/,-30.1%[inhibitor],-2.5%
CC(c1nnc(SCC(=O)N2CCc3ccccc32)n1-c1ccc(Cl)cc1)N(C)C (stereo unspecified),-3.2,-0.4,-2.1%,-7.3%,9.5%,0.2%,-0.3%
C/C(=N/NC(=O)C1CC1(c1ccccc1)c1ccccc1)c1cccs1 (stereo unspecified),-7.1,8.8,2.2%,-9.7%,-11.7%,-16.8%,2.5%
CN1OC[C@@H]2CN(C(=O)c3cccnc3)[C@H](c3ccc(N4CCCCC4)cc3)C[C@@H]21,-5.6,/,-0.7%,/,/,/,-5.7%
CCOC(=S)SCC(=O)N1CCc2ccccc2C1C1C(=O)CCCC1=O (stereo unspecified),-2.5,5.4,-0.1%,-4.1%,56.2µM*,-75.8%[inhibitor],-2.4%
CC(C)C[C@H](NC(=O)c1nc[nH]c1C(=O)NC1CCN(C(=O)OC(C)(C)C)CC1)C(=O)OCc1ccccc1,3.2,4.1,-1.7%,?,14.5%,/,1.4%
O=C(Cc1ccc(Cl)cc1)Nc1ccc(-c2nnc(-c3ccco3)o2)cc1,5.1,0.4,0.4%,7.9%,1.2%,1.5%,31.6µM*
COc1ccc(CC(=O)NNS(=O)(=O)c2ccc3ccccc3c2)cc1OC,-3.0,1.3,2.7%,-5.2%,4.3%,-30.7%,0.9%
Cc1nn(C(C)C(=O)N2CCN(c3ccccn3)CC2)c(=O)c2cc3occc3n12 (stereo unspecified),-6.1,0.5,-0.5%,-10.1%,8.0%,?,-11.2%
O=C(OCn1cncn1)c1ccc(Cl)cc1Cl,-2.6,1.1,-0.6%,14.4%,-8.8%,-4.0%,-1.1%
COc1ccc2[nH]c3c(C)c4cc[n+](C)cc4c(C)c3c2c1,-3.6,-8.5,6.2%,?,-11.7%,0.1%,-1.3%
CCOC(=O)C1CCCN(CCC(=O)Nc2ccc(C)cc2)C1 (stereo unspecified),-2.9,3.0,-0.4%,7.0%,9.0%,-28.8%,-4.9%
CCC1C(=O)C(CC)C(c2ccccc2)NC1c1ccccc1 (stereo unspecified),-4.6,3.3,?,-11.3%,-12.6%,1.3%,/
CCOc1ccc(OCC)c(N=c2oc3c(C)ncc(CO)c3cc2C(N)=O)c1,-4.0,-4.4,-0.3%,1.9%,-5.4%,-5.2%[15.4 µM],-0.9%
COC(=O)c1cc2nc(-c3ccccc3)cc(C(F)(F)F)n2n1,-0.1,8.0,/,-7.4%,1.5%,-46.8%[inhibitor],-18.9%
CC(=O)O[C@H]1CC[C@@]2(C)C(=CC[C@H]3[C@@H]4CC[C@H](C5(C)OCCO5)[C@@]4(C)CC[C@@H]32)C1,-4.7,/,3.1%,9.1%,/,-63.7%[inhibitor],-0.6%
CC(C)(C)CC(C)(C)NC(=S)Nc1ccc(S(=O)(=O)N2CCOCC2)cc1,-0.7,0.5,?,-1.9%,18.3%,2.0%[15.4 µM],-3.0%
Cc1ccc(S(=O)(=O)N2CCOCC2)cc1NC(=O)COC(=O)C1COc2ccccc2O1 (stereo unspecified),-0.3,5.3,0.3%,-9.7%,1.1%,-13.3%,-1.4%
O=S1(=O)CC(N2CCN(CC3CC3)CC2)CN1Cc1ccccc1 (stereo unspecified),-4.4,/,0.0%,/,/,/,-0.3%
CCN(CC)CCCn1c(=S)[nH]c2ncccc2c1=O,3.5,-1.1,2.6%,13.1%,?,?,31.6µM*
CSc1ccc(Cl)c(C(=O)NCCOc2cc(C(C)C)ccc2C)c1,0.7,5.5,?,-13.6%,7.9%,23.4%,-2.6%
O=C(Nc1ccc(Oc2cccnc2)cc1)C1CCN(Cc2ccccc2F)CC1,-5.5,0.0,-3.0%,10.7%,20.3%,-8.1%,0.3%
Cc1cc(=O)[nH]c(SCCOc2cccc(C(F)(F)F)c2)n1,1.5,1.6,-7.6%[38.3 µM],0.1%,8.6%,-0.1%,0.7%
O=C(Nc1cccnc1)C1CCCN(S(=O)(=O)c2cccc3nsnc23)C1 (stereo unspecified),-0.8,-2.0,-0.5%,-11.8%,0.5%,9.7%,-0.6%
CN(C)/C=N/c1c(C#N)cnn1-c1nc2ccccc2s1,-1.7,-0.2,2.3%,2.5%,5.4%,4.0%,0.6%
Cc1ccc2c(c1)C=CC(C)N2C(=O)c1ccccc1 (stereo unspecified),-4.7,3.6,10.2%,-0.5%,8.7%,-53.3%[inhibitor],1.6%
COC(=O)c1ccc(C(NC(=O)OCc2ccccc2)/C(C)=C/[C@@H](C)C(=O)NCc2ccc(-c3ccccc3)cc2)cc1 (stereo partly specified),0.8,0.5,-1.2%,-7.0%,13.4%,-1.7%,-6.2%
COc1cccc(/C=C/C(=O)c2cccc([N+](=O)[O-])c2)c1,0.1,0.7,0.7%,4.0%,?,-3.1%[15.4 µM],/
O=C(O)c1ccc(CNC(=O)C2CCN(S(=O)(=O)c3cccs3)CC2)cc1,-1.6,/,-0.1%,/,/,3.1%,0.3%
O=C(c1ccc2c(c1)OCO2)N1CCN(c2ccc(F)cc2)CC1,-2.3,0.7,-0.1%,-3.4%,3.0%,15.9%,-2.7%
Oc1ccc(Br)cc1Cn1nnc2ccccc21,3.2,-0.2,?,1.1%,5.3%,-47.9%[inhibitor],1.0%
O=[N+]([O-])c1nn(-c2ccc(Cl)cc2)n(O)c1=NCc1cccnc1,0.2,-3.4,-0.7%,14.3%,6.1%,-34.0%[inhibitor],1.2%
COc1ccc(-n2nnnc2CNC(=O)c2ccc3c(c2)OCO3)cc1,-4.0,/,4.0%,7.2%,/,-24.1%,-11.2%
Cc1cccc(NC(=O)Nc2cc(C)on2)c1,-4.1,2.2,-0.2%,-17.3%,-2.8%,-4.9%,0.9%
CC(=O)Nc1cccc(-c2ccnc3c2CC(C)(C(=O)Nc2cccc(Oc4ccccc4)c2)O3)c1 (stereo unspecified),5.0,/,4.5%,/,/,/,-11.9%
CC(=O)N1c2ccc(S(=O)(=O)NCCC(=O)Nc3ccc(C)c(Cl)c3)cc2CC1C (stereo unspecified),0.1,-5.8,0.3%,-7.3%,3.2%,-7.1%,1.0%
O=C1CC(/C=C/c2ccc(Cl)cc2)=Nc2ccccc2N1,-1.4,-0.2,0.0%,0.8%,19.1%,15.8%,-0.4%
CSCCC(NS(=O)(=O)c1ccccc1F)C(=O)NCc1ccncc1 (stereo unspecified),-3.9,/,0.8%,9.2%,/,-14.3%[15.4 µM],/
Cc1ccc(OCC(=O)Nc2ccc(S(=O)(=O)NC3=NCCCCC3)cc2)cc1,-0.2,/,2.9%,/,/,-23.8%,-1.6%
Cc1ccc(OCCN2CCN(C(=O)CCC(=O)Nc3nnc(C)s3)CC2)cc1,0.8,0.2,2.4%,6.9%,10.8%,-50.7%[inhibitor],-0.9%
COc1ccc(NS(=O)(=O)c2cccc(C(=O)N3CCN(S(=O)(=O)c4ccccc4)CC3)c2)cc1,-0.1,/,-0.7%,-31.3%,/,-35.5%[inhibitor],0.4%
Clc1ccc(-c2cnc3cccnn23)cc1,-3.5,/,-0.3%,/,/,/,4.7%
COc1ccc2nc(C)cc(Nc3ccc(N4CCOCC4)cc3)c2c1,-1.0,-0.3,2.0%[38.3 µM],-6.1%,-4.1%,-2.2%,-0.7%
Cn1ccc2c(-c3ccc(C(=O)O)cc3)cc3c(c21)C1CCC3C1 (stereo unspecified),-5.3,/,-0.6%,/,/,/,4.4%
CCS(=O)(=O)Nc1ccc(C(=O)NCCSc2ccccc2)cc1,-4.5,-4.2,-0.7%,-11.8%,22.0%,-20.3%[15.4 µM],1.6%
COC(=O)C(c1ccccc1)C(CC(=O)c1ccccc1)c1ccccc1 (stereo unspecified),-0.9,/,4.2%,/,/,-62.8%[inhibitor],0.1%
O=C(CCC(=O)Nc1ccc(F)cc1)N/N=C/c1ccc(O)cc1O,1.9,4.0,0.9%,7.0%,19.5%,?,/
O=S(=O)(c1ccccc1)C1(S(=O)(=O)c2ccccc2)CCCC1,-0.1,-1.4,-2.7%,-3.1%,12.9%,-20.9%,-1.0%
CC1(C)Cc2ccccc2-c2n[nH]c(=S)n21,1.5,-0.8,-1.9%[38.3 µM],3.7%,44.7µM*,?,-15.2%
CCCCn1c(SCC(=O)Nc2nnc(CC)s2)nc2ccccc2c1=O,0.3,4.5,-10.8%[38.3 µM],3.5%,15.5%,10.6%,-0.1%
CCOC(=O)c1c(C)[nH]c(C(=O)OCC(=O)Nc2ccc(Cl)cn2)c1C,1.9,/,0.5%,-10.9%,/,?,?
O=C(c1noc2c1CCCC2)N1CCC(CO)(Cc2ccccc2Cl)CC1,1.0,-4.8,1.5%,-3.2%,-1.3%,-9.5%[15.4 µM],/
O=C(O)COc1cccc(/C=C2/SC(=S)N(Cc3ccccc3)C2=O)c1,-2.7,14.1,-0.3%,1.7%,1.1%,5.0%[15.4 µM],-2.4%
O=C(NCCS(=O)(=O)c1ccc(Br)cc1)c1ccccc1Cl,-6.9,/,0.7%,7.0%,8.9%,-5.5%,1.0%
COC(=O)c1scc(S(=O)(=O)C(C)C)c1N/N=C(\C#N)C(=O)c1ccc(Cl)cc1,-9.0,-0.4,39.8µM*,?,-7.7%,15.8%,-9.3%
Nc1ncc(S(=O)(=O)c2ccc(Cl)cc2)c(N)n1,3.4,1.0,0.2%,3.2%,6.4%,28.4%,0.0%
CCOc1ccc(COC(=O)C2CC(=O)N(CCc3ccccc3)C2)cc1OC (stereo unspecified),2.8,/,2.0%,-8.7%,/,-16.5%,0.3%
CN(C)S(=O)(=O)c1cccc(CSc2cccc[n+]2[O-])c1,-2.0,-1.8,-1.3%,9.1%,-5.7%,-5.9%,-2.2%

# Bioassay records (PubChem)
